# gsp antagonist: antagonists of gsp mutant (McCune-Albright syndrome) | gsp-mutant cells, cAMP HTRF, 30 min; control for the full effect not named in the record | Potency, µM (titrated, usually from 76.9 µM), for the others: at the highest dose activity change, negative = inhibition, hits mostly inhibitors | hit rate 0.4% among 340,000; active = falling curve of any shape with a large fitted effect; inconclusive = falling curve, mostly with a smaller effect; inactive = flat or rising curve; cell line not stated here;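 also: intracellular cAMP measured with PDE inhibitor Ro 20-1724 present during compound exposure; potency is read from the fitted curve at half-maximal effect; % is scaled to controls: 0 for no effect and ±100 for the full control effect; nearly all actives have a fitted effect of over 65% in size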
#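 HTRF cAMP measurement after 30 min RT detection following 30 min, 37C compound treatment alongside […] (added as 300 uM solution) in G418-selected cells seeded at 2000/well and grown 16–24 h.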
# TRPML1 ag: agonists of human TRPML1 channel. activation, % (test concentration not listed). Q9GZU1. TRPML1-expressing cells, Ca2+ dye fluorescence, FDSS; host cell line not named in the record; reference of the full effect not given here. hit rate 0.12% among 410,000. AID 624414; in the data active = activation above about 50%; inconclusive = about 30% to 50%; inactive = below about 30%; also: 0% is about no effect; the text of the record puts the active cut at 80%
# Target sequence (Q9GZU1 whole entry, looked up): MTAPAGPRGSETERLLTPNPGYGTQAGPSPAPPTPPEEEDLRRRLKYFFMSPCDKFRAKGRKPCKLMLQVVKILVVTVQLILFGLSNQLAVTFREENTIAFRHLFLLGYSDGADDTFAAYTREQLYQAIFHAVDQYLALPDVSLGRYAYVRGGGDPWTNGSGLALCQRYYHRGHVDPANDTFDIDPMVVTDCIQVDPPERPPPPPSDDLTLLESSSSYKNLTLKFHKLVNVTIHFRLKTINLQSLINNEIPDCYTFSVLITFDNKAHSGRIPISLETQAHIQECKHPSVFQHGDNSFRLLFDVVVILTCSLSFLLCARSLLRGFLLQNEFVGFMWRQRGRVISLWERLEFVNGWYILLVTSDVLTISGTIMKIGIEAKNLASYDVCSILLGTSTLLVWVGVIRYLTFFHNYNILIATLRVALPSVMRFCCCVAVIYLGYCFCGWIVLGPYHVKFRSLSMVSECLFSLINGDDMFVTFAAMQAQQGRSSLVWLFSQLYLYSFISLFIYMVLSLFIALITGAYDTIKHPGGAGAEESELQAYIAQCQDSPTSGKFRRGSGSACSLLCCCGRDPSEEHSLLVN
#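 In this qHTS format, compounds were pin-transferred onto Ca8-dye-loaded TRPML1-DL cells induced with Tet overnight, and intracellular Ca2+ fluorescence was recorded kinetically for 110 s after a 10 s baseline. A subsequent 4uM final 54-4 (EC80) addition followed by a second 110 s read served as the antagonist phase.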
# Menin MLL FP FL: menin-MLL binding inhibition, fluorescein peptide; Fluorescence polarization, fluorescein-MLL peptide displacement from menin; FP activity change, % at 61.4 µM; 290,000 tested, under 10 active; AID 1766; inconclusive = falling polarisation curve, or a change in total fluorescence; inactive = total fluorescence flat and polarisation flat or rising; no compound was filed as active; the % refers to the polarisation; negative = inhibition;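 also: % of control where 0% means no effect; inhibitors lower the polarisation; unlabelled MLL peptide was the positive control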
# TRPML1 inh: human mucolipin-1 channel inhibition | Q9GZU1 | TRPML1-inducible cells, Ca2+ dye fluorescence, FDSS; active compounds read low; inhibition of EC80 agonist-evoked calcium signal | activity change, negative = inhibition, % (test concentration not listed) | hit rate 0.02% among 390,000 | AID 624415; in the data active means activity change below about -50%; inconclusive means about -30% to -50%; inactive means above about -30%;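 also: stimulus is agonist 54-4 at its EC80 concentration; % is scaled to controls: 0 for no effect and ±100 for the full control effect; compound concentration not given in the record; the text of the record puts the active cut at -80%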
#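 TRPML1-DL cells, Tet-induced overnight (~16 h, 37 °C) at 1,500 cells/well, were loaded with Ca8 no-wash dye plus quencher for 45-90 min at room temperature. Compounds were pinned during FDSS kinetic reading; agonist 54-4 at EC80 (4 uM final) then added.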
# gsp ag: activates gsp, the McCune-Albright syndrome mutation; gsp mutant cells, cAMP HTRF, 30 min; control for the full effect not named in the record; Potency, µM (series often up to 76.9 µM), inactives show top-dose activation (cAMP increase), usual class: activators; hit rate 0.13% among 340,000; active = well fitted activation curve with a large enough effect; inconclusive = small, poorly fitted or top-dose-only effect, or another doubt; inactive = no such curve, though single readings can be large or run the other way; cell line not stated here;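 also: phosphodiesterase inhibitor Ro 20-1724 added with compounds to block cAMP breakdown; potency is read from the fitted curve at half-maximal effect; nearly all actives have a fitted effect of over 60% in size; about a fifth of the inactives were tested at one dose only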
#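 Cells stably selected in G418 were plated at 2000/well, grown 16-24 hr, then given compounds in DMSO with the PDE inhibitor […] (300 uM solution added) for 30 min at 37C; cAMP was read by HTRF.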
# ClpP mod: qHTS Assay for Activators of ClpP | Potency, µM (titrated, usually from 57.5 µM), for the others: top-dose activity change, negative = active | hit rate 1.9% among 340,000 | purified B. subtilis ClpP, FRET peptide cleavage, 20 min | ATP-dependent Clp protease proteolytic subunit (Bacillus subtilis (strain 168)), P80244; active = well fitted falling curve with a large enough effect; inconclusive = small, poorly fitted or top-dose-only effect; inactive = no such curve, though single readings can be large or run the other way; also: potency is read from the fitted curve at half-maximal effect; the source files actives as falling curves though it sought activators and does not explain the sign; nearly all actives have a fitted effect of over 65% in size; many hits overshoot -100%
# Target sequence (P80244 whole entry, looked up): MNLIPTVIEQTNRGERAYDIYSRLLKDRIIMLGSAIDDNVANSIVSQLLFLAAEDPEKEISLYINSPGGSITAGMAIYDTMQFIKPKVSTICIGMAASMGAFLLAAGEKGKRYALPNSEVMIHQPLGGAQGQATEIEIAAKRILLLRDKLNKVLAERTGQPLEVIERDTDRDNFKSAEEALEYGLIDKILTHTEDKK
#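 Buffer: 100 mM Tris/HCl pH8, 100 mM KCl, 0.05% low protease BSA, 2.5% glycerol, 0.01% Tween-20. ClpP 10 microg/mL final; 20 min RT; delta FRET normalized to ADEP and DMSO controls.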
# * marks the source's active call; other numbers are inactive results; ? = inconclusive; . = not tested or not shown; & = joins results of further samples; [ ] = another dose, or the depositor's remark. Random draw from the library. Share with any hit: about 2.1%.
# Values run as follows: gsp antagonist	TRPML1 ag	Menin MLL FP FL	TRPML1 inh	gsp ag	ClpP mod
- CCn1cc(C(=O)N(C)c2ccccc2F)c2cc(OC)c(OC)cc2c1=O
→ 5.6%	.	-1.5	.	-4.5%	-6.7%
- COc1ccc(NC(=S)Nc2cc(-c3ccccc3)[nH]n2)cc1Cl
→ -15.7%	-0.5	2.0	47.4	?	-1.9%
- O=C1OCCN1S(=O)(=O)Nc1ccccc1
→ 0.0%	-0.2	-0.3	2.6	6.8%	0.1%
- CCS(=O)(=O)NCCc1csc2nc(-c3ccc(C)cc3)nn12
→ .	3.1	.	-0.7	.	-0.4%
- Cc1ccccc1NC(=O)NCc1ccco1
→ 2.1%	-0.4	1.7	3.9	-30.4%[inhibitor]	0.7%
- CCCCc1cc(=O)oc2cc(C)cc(OCC(=O)N3CCC(C(N)=O)CC3)c12
→ -6.6%	.	0.2	.	.	5.0%
- CC(=O)N1CCCc2cc(S(=O)(=O)N3CCC(C)CC3)ccc21
→ 10.8%	0.8	1.1	3.6	7.7%	0.7%
- COc1ccccc1CN1CCNC(=O)C1CC(=O)NCCc1cnccn1 (stereo unspecified)
→ 10.5%	0.2	-11.1	38.2	3.4%[15.4 µM]	.
- O=C1Nc2ccccc2/C1=N\c1sc2c(c1C(=O)Nc1ccccc1)CCCC2
→ 4.2%	0.0	1.7	-0.2	-6.7%	0.9%
- O=C1NCCSC1c1ccccc1 (stereo unspecified)
→ 1.3%	0.3	.	2.7	18.9%[15.4 µM]	.
- O=C(CN1CCC(Cc2ccccc2)CC1)NC(=O)NCc1ccco1
→ 3.9%	-0.5	-0.6	-7.6	5.2%	-2.8%
- Cc1cc[n+](CC(=O)Nc2nc3ccccc3s2)cc1
→ 3.3%	-0.3	9.1	-0.5	-20.7%	.
- CC(Cc1c[nH]c2ccccc12)NC(=O)C1CCCNC1=O (stereo unspecified)
→ -15.5%	0.9	2.1	22.8	-14.1%	-1.1%
- CCN(CC)C(=O)CSc1nc2c(sc(=S)n2-c2ccccc2OC)c(=O)n1-c1ccccc1
→ -19.8%	1.4	-4.5	39.5	-21.4%	.
- O=C(c1ccc(OC2CCN(Cc3ccccc3C(F)(F)F)CC2)cc1)N1CCCCC1
→ -25.9%	-0.5	.	-6.1	-1.2%[15.4 µM]	-1.1%
- CN(CC(=O)Nc1ccccc1Cl)C(=O)COC(=O)/C=C/c1ccccc1
→ -3.1%	0.1	.	-2.7	-4.0%[15.4 µM]	-0.9%
- O=C(Nc1nc(-c2ccc(S(=O)(=O)N3CCOCC3)cc2)cs1)c1ccccc1
→ ?	0.7&1.0	-0.2	-7.3&-9.4	11.9%&-25.1%[15.4 µM]	-3.7%&-3.5%
- Cc1cc(C)cc(C(=O)N(C)C2CCCN(Cc3ccccc3F)C2)c1 (stereo unspecified)
→ -13.4%	1.2	0.5	-10.4	-31.8%[inhibitor]	-0.3%
- CCOc1cccc(CNc2ccc(O)cc2)c1OCc1ccc(Cl)cc1
→ -11.3%	0.2	-1.3	8.9	?	-1.3%
- Cc1ccccc1-c1nnnn1C1CCS(=O)(=O)C1 (stereo unspecified)
→ 10.3%	0.4	1.8	-6.0	-65.2%[inhibitor]	-0.3%
- O=C(COC(=O)c1ccc2ncsc2c1)NC(=O)c1ccccc1
→ -3.6%	-0.1	-4.6	4.1	10.8%[15.4 µM]	-1.7%
- COc1ccccc1CNC(=O)COC(=O)c1cc(-c2ccco2)nc2ccccc12
→ -9.4%	1.7	8.8	5.3	-42.0%[inhibitor]	36.7%
- O=C(c1ccc(F)cc1F)N1CCCN(c2nc(-c3ccccc3)ns2)CC1
→ 3.7%	0.0	1.9	0.9	4.5%	-0.8%
- CC(=O)c1ccc(NC(=O)[C@@]2(CC(=O)O)CC(/C=C/c3ccccc3)=NO2)cc1
→ 10.4%	.	-0.3	.	?	0.0%
- Cc1ccc(Cl)cc1NS(=O)(=O)c1ccc2c(c1)NC(=O)CCS2
→ .	1.5	.	-9.4	.	-2.4%
- CC(C)[C@H](NC(N)=O)C(=O)Nc1ccc2c(c1)CCC2
→ 8.3%	-0.1	4.5	-0.8	0.0%	-1.3%
- CCOC(=O)c1c(S(=O)(=O)NCC(=O)Nc2cccc(SC)c2)c(C)n(C)c1C
→ .	2.9	.	-0.8	.	-0.4%
- CCNc1nc(SCCOc2ccc(Cl)cc2Cl)nc(N(C)C)n1
→ -2.3%	2.7	-4.4	-9.5	-8.3%	1.1%
- Cc1cc(C)n(CC(=O)N2CCCC(N3CCN(c4cccc(C(F)(F)F)c4)CC3)C2)n1 (stereo unspecified)
→ 3.2%	-0.1	.	-1.6	-0.4%[15.4 µM]	-3.1%
- CSc1ccc(CCNC(=O)c2cc(C)nc3c2c(C)nn3-c2cccc(F)c2)cc1
→ .	-0.1	.	20.7	.	4.2%

# Entries of single compounds from above. Order of values: gsp antagonist, TRPML1 ag, Menin MLL FP FL, TRPML1 inh, gsp ag, ClpP mod
# Listed for COc1ccccc1CN1CCNC(=O)C1CC(=O)NCCc1cnccn1 (stereo unspecified) = 10.5%, 0.2, -11.1, 38.2, 3.4%[15.4 µM], .
# Listed for O=C(Nc1nc(-c2ccc(S(=O)(=O)N3CCOCC3)cc2)cs1)c1ccccc1 = ?, 0.7&1.0, -0.2, -7.3&-9.4, 11.9%&-25.1%[15.4 µM], -3.7%&-3.5%
# Listed for O=C1OCCN1S(=O)(=O)Nc1ccccc1 = 0.0%, -0.2, -0.3, 2.6, 6.8%, 0.1%

# More compounds:
# Values run as follows: gsp antagonist	TRPML1 ag	Menin MLL FP FL	TRPML1 inh	gsp ag	ClpP mod
- Cc1nc2cc(NS(=O)(=O)c3ccccc3)ccc2n1C
→ 1.3%	-0.7	1.6	1.5	0.0%	.
- CCn1c(SCc2nc(CC(=O)Nc3ccccc3OC)no2)nnc1-c1cccs1
→ -6.8%	-1.4	1.5	-10.4	2.6%	-3.1%
- O=C(CN(Cc1ccccc1Cl)C(=O)c1csnn1)NCc1ccc(F)cc1
→ .	0.1	-0.7	41.1	14.0%[15.4 µM]	.
- COc1ccc(OC2C(=O)N(c3ccc(C)c(C)c3)C2c2ccc(OC)c(OC)c2)cc1 (stereo unspecified)
→ -5.8%	-0.2	-0.4	8.5	?	.
- Cc1cc(-c2ccco2)n(-c2ccccc2)n1
→ 0.0%	-0.8	12.9	8.4	2.6%	-4.7%
- CCOc1ccc(CNC(=O)CCn2c(=O)c3cccn3c3cccnc32)cc1
→ .	0.8	.	-7.1	.	-18.7%
- O=C(Nc1c(F)cc(F)cc1Br)c1cc(-c2ccco2)on1
→ 0.5%	0.3	21.7	2.8	-1.3%	-1.1%
- COc1ccc(C(CNC(=O)c2cc(F)c(F)c(F)c2F)N2CCOCC2)cc1 (stereo unspecified)
→ -38.2%	0.0	-0.8	-15.2	6.1%[15.4 µM]	-8.5%
- S=C(Nc1ccc(Oc2ccccc2)cc1)Nc1cccnc1
→ -4.1%	.	-1.1	.	-21.7%	-2.3%
- O=C(NC[C@@H]1CCCO1)c1cccc2c1C(=O)c1ccc(N3CCOCC3)cc1S2(=O)=O
→ -2.6%	0.7	.	9.7	.	2.0%
- Cc1cc(Cl)c(S(=O)(=O)NC2CCCC2)cc1OCC(N)=O
→ 7.4%	0.1	.	12.4	-23.8%	-2.1%
- COc1cc([N+](=O)[O-])ccc1NC(=S)N1CCOCC1
→ 2.9%	-0.4	1.7	-3.9	22.9%	2.1%
- C=CCSc1nn2c(=O)c3ccccc3nc2s1
→ 4.6%	-0.1	0.5	23.6	-2.4%	-0.8%
- Cc1ccc(CNC(=O)Nc2cccs2)cc1
→ 5.9%	-1.3	?	-12.2	9.1%	-1.1%
- CC(C)NS(=O)(=O)c1ccc(CCC(=O)NCc2cccnc2)cc1
→ 4.1%	-0.3	3.3	5.4	2.7%	-0.2%
- CCOC(=O)c1nnn(-c2nonc2N)c1-c1ccccc1
→ 5.1%	-0.2	21.5	-4.1	9.0%	-1.0%
- C=CCOC(=O)C1=C(C)N=C2SCCC(=O)N2C1/C=C/c1ccccc1 (stereo unspecified)
→ -25.5%	1.3	0.3	5.9	8.4%	-0.8%
- O=C(NC1CCCc2c1cnn2-c1ccccc1F)c1ccccc1N1CCOCC1 (stereo unspecified)
→ -10.1%	1.1	.	0.6	-14.6%	-1.2%
- Cc1cc(C)n(-c2ccc(C(=O)N3CCc4ccccc43)cc2)n1
→ 1.7%	0.8	1.3	40.2	18.0%	2.1%
- O=C1C(N2CCOCC2)=C(n2nnc3ccccc32)C(=O)c2ccccc21
→ -0.7%	-1.4	3.0	-1.2	9.0%	0.3%
- COc1cccc(CNC(=O)Cn2nc([N+](=O)[O-])c(Br)c2C)c1
→ -4.5%	-1.0	-1.2	21.4	-4.1%	.
- O=C(NCc1cccnc1)C(=O)NCC(c1ccco1)N1CCN(c2ccc(F)cc2)CC1 (stereo unspecified)
→ -1.8%	0.5	-6.6	19.7	-20.1%	-2.5%
- Cc1nc2ccc(Cl)cc2[nH]1
→ 7.6%	0.1	.	-1.7	-6.9%	-2.1%
- CC(NC(=O)C12CC3CC(CC(C3)C1)C2)C(=O)N/N=C/C1=C(N2CCOCC2)C(=C\c2ccccc2)/CC1 (stereo unspecified)
→ -10.4%	-0.4	6.9	-3.1	-5.7%[15.4 µM]	-3.9%
- Cc1oc(-c2ccccc2Cl)nc1CS(=O)(=O)CC(=O)NC(C)CCc1ccccc1 (stereo unspecified)
→ .	0.5	.	1.6	.	-1.0%
- CCOc1ccc(NC(=O)Cc2cccc3ccccc23)c([N+](=O)[O-])c1
→ -28.5%	0.2	4.9	9.2	-0.5%[15.4 µM]	.
- O=C(Nc1cc(C(F)(F)F)ccc1N1CCOCC1)c1ccc2ccccc2n1
→ 0.0%	-0.4	1.5	13.1	-2.8%	-6.4%
- COc1ccc(OC)c(C2C(C#N)=C(N)Oc3cc(C)n(Cc4ccccn4)c(=O)c32)c1 (stereo unspecified)
→ 0.6%	-0.3	-0.1	32.1	-17.4%	-0.6%
- CCC(C)(C)C1CCC2(CC1)NC(=O)N(CC(=O)N1CCN(S(=O)(=O)c3cc(C)ccc3C)CC1)C2=O (stereo unspecified)
→ 4.9%	1.2	2.6	-21.7	-15.9%	-0.8%

# Reformatted: entries from further up
smiles	gsp antagonist	TRPML1 ag	Menin MLL FP FL	TRPML1 inh	gsp ag	ClpP mod
CSc1ccc(CCNC(=O)c2cc(C)nc3c2c(C)nn3-c2cccc(F)c2)cc1	.	-0.1	.	20.7	.	4.2%
COc1cc([N+](=O)[O-])ccc1NC(=S)N1CCOCC1	2.9%	-0.4	1.7	-3.9	22.9%	2.1%
